Mtb betalactam: beta-lactam sensitization of Mtb H37Rv, H37Rv | inhibition, % at 25 µM | M. tuberculosis H37Rv growth with meropenem, percent inhibition; hits of this screen are not shown here | AID 434955, 2010 | 0.27% of 330,000 active;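 active means about 74% or more and at least 40 points above the plate without the antibiotic, then above 30% in a dose series; inconclusive means first-round hits that could not be retested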;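 further: growth measured after seven days incubation then overnight dye step; 0% = bacteria only wells and 100% = bacteria with antibiotic; twin plates without the antibiotic show which effects depend on it; some results filed as inactive read as strong as hits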
Arbovirus anti: antivirals against arbovirus infection, primary screen, cell-based, full library, 10K replicate subset; arbovirus infection cell-based antiviral screen; inhibition, % at 10 µM; 0.37% of 200,000 active; AID 1251, 2008;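 active means inhibition from about 30%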;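 further: bluetongue infection of BSR cells; cell survival read as ATP light after 72 h; 0% = infected wells without compound and 100% = uninfected wells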
YopH PTP inh: YopH tyrosine phosphatase inhibitors, primary screen, biochemical, fluorescence Ex485/Em525; inhibition, %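 (about 10 µM by stock and volumes)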; 0.16% of 140,000 active; YopH tyrosine phosphatase [Yersinia enterocolitica];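 active means inhibition of 50% or more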;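 further: controls were vehicle for no effect and minimum signal wells for full effect; inactives centre near -20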
Mtb growth: M. tuberculosis H37Rv growth inhibitors, H37Rv strain (AID 1626); M. tuberculosis H37Rv growth inhibition; higher % means a stronger effect; inhibition, % at 10 µM, or IC50 in µM where a hit was titrated; 0.95% of 220,000 active;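 active means confirmed in a dose series; inconclusive means inhibition above 80% but not taken into the dose series; inactive means below 80% or under 30% at every dose of the series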;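 further: bacteria incubated seven days before Alamar blue readout; 0% = bacteria only wells and 100% = bacteria with antibiotic wells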
RecA splice inh: Mtb RecA intein splicing inhibitors, primary screen, biochemical, fluorescence, HTS | Protein RecA (Mycobacterium tuberculosis (strain ATCC 25618 / H37Rv)), P9WHJ3 | cell-free RecA intein splicing | inhibition, %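 (about 9 µM by stock and volumes)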 | 0.75% of 290,000 active | AID 2221, 2009; in the data active means inhibition above about 30%; inconclusive means no clear call, values can overlap the other calls;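 further: 0% = vehicle wells and 100% = reference inhibitor control wells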
Target sequence (P9WHJ3 whole entry, looked up, canonical isoform): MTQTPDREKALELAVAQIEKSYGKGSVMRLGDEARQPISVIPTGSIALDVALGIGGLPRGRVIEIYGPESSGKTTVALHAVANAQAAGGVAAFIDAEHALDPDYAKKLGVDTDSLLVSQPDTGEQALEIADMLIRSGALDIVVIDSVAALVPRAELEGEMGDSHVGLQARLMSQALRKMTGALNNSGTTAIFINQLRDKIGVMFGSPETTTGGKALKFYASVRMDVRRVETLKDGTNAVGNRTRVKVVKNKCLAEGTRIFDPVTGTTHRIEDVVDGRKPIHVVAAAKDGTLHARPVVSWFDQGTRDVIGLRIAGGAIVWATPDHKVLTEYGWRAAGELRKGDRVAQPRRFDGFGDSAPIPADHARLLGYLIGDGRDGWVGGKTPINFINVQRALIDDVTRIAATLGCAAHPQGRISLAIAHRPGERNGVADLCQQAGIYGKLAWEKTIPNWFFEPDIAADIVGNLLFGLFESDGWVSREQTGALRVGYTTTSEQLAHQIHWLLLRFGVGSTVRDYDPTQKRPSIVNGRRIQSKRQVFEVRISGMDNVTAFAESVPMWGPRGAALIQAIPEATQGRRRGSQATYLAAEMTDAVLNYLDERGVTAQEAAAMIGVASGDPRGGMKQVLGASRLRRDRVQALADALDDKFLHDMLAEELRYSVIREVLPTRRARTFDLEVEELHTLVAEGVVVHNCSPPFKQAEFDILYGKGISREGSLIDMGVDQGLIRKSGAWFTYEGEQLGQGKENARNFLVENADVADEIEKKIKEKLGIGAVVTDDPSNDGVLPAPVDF
Arbovirus anti repeat: second read-out of Arbovirus anti, no call of its own (marks repeat the call); inhibition, %; measured here: 10K subset replicate screen; many hits read low in the repeat;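 first of two repeat runs on a subset; 0% = infected and 100% = uninfected wells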
Starred values were filed as active, the others as inactive; ? = inconclusive; · = no result given. Not all compounds are listed; rates above refer to the full screens.

SMILES	Mtb betalactam	Arbovirus anti	YopH PTP inh	Mtb growth	RecA splice inh	others
COc1ccc(-c2nn3c(=O)c(C)nnc3s2)cc1	3	·	·	·	-0.5
CC1=NN(c2ccc(S(=O)(=O)O)cc2C)C(=O)C1	6	11	·	-3%	91*
Cc1c(C(=O)NCc2cccs2)oc2ccc(S(=O)(=O)N3CCOCC3)cc12	-8	-13	-52	-1%	1.9	Arbovirus anti repeat=2
NC(=O)c1ccc(Sc2nnc(-c3cccs3)n2CC2CCCO2)c([N+](=O)[O-])c1 (stereo unspecified)	-1	2	-20	-16%	3.5
CC(=O)Nc1nnc(SCc2cc(=O)c(OC(=O)c3ccccc3)co2)s1	10	-2	·	4%	-1.4
COc1cccc(C(=O)n2ccc(-c3cccs3)n2)c1	-1	·	·	·	5.7
O=C(Nc1ccncc1)c1c(F)cccc1F	-7	11	-27	3%	5.2
Cc1c(CCC(=O)O)c(=O)oc2cc(OCc3ccccc3Br)ccc12	4	·	·	·	1.6
COCc1cc(=O)n2[nH]c(C)nc2n1	?	2	-28	0%	1.9
COc1cc(C(=O)O)ccc1OCc1ccncc1	-6	·	·	·	-5.9
Cc1ccc(C(C(=O)NC2CCCC2)N(C(=O)Cc2cccs2)c2ccc(C)c(C)c2)o1 (stereo unspecified)	3	-15	1	5%	·
Cc1ccc(NC(=O)c2cnccn2)cc1	6	1	·	4%	-2.6
CC(=O)Nc1ccc(S(=O)(=O)NNc2ccc([N+](=O)[O-])cc2)cc1	-2	·	·	·	8.0
CN(CC(=O)Nc1cccc(F)c1)C(=O)CCc1nc2ccccc2c(=O)[nH]1	-7	·	·	·	0.4
COC(=O)c1cnc(NNS(=O)(=O)c2ccc(Cl)cc2)nc1C(F)(F)F	-1	·	·	-4%	-3.4
c1ccc(-c2ccccc2OCCCN2CCCCC2)cc1	-3	-10	-10	0%	5.2
O=C(COc1ccccc1[N+](=O)[O-])N1CCN(S(=O)(=O)c2ccccc2)CC1	-3	5	·	-3%	3.8
O=C(Cc1cccc2ccccc12)Nc1cccnc1	8	6	·	-7%	18
Cn1ccnc1C(=O)c1ccc(Cl)c(S(=O)(=O)N2CCOCC2)c1	-2	·	·	15%	-2.9
COC(=O)c1cc(C)sc1NC(=O)CN1CCN(C(=O)c2ccco2)CC1	2	·	·	·	1.8
COC(=O)c1ccc(NS(=O)(=O)c2cc(C)ccc2OC)cc1	-10	0	-16	-5%	-0.1
CCc1ccc(C(=O)COC(=O)C(CCSC)NC(=O)c2ccccc2)cc1 (stereo unspecified)	3	4	-5	14%	4.6
O=C(COc1cccc2ccccc12)Nc1nc2ccccc2[nH]1	100	-12	-17	?	·
CCCCn1c(CN2CCN(C)CC2)nc2ccccc21	0	7	-13	0%	-2.8
CCN(C(=O)Cn1cc(C(F)(F)F)ccc1=O)c1c(N)n(Cc2ccccc2)c(=O)[nH]c1=O	-2	16	·	-11%	0.3
COC(=O)C1=C(C)N(Cc2ccccc2)C(=NCc2cccc(C(F)(F)F)c2)N[C@H]1c1cccc(F)c1	0	·	·	·	12
CCCCc1ccc(-c2nc(-c3ccncc3)no2)cc1	6	5	-24	8%	1.5	Arbovirus anti repeat=9
COc1ccc(CC(=S)N2CCOCC2)cc1F	-6	4	0	9%	0.1
COc1ccc(OC)c(C2=NOC(C(=O)NCC3CCCO3)C2)c1 (stereo unspecified)	-10	5	-22	-4%	29
COc1ccc(/C=N/NC(=O)c2ccc(C)nc2)cc1O	3	·	·	·	-0.2
Cc1cc(NC(=O)CSc2nccn2-c2cccc(Cl)c2)no1	-6	·	·	·	-1.2
COc1ccccc1N(CC(=O)NCCSCc1ccco1)S(=O)(=O)c1ccccc1	-5	·	·	·	5.8
Nc1ccc(-c2nnc(-c3ccc(N)cc3)o2)cc1	22	·	·	·	2.7
CCCc1cc(=O)oc2cc(OC(=O)CN3C(=O)NC4(CCCC4)C3=O)ccc12	-5	·	·	·	-0.2
CC1CN(C(=O)CSc2nc(-c3ccc(F)cc3)cs2)CC(C)O1 (stereo unspecified)	-8	11	-5	6%	-0.7
CC1(C)CC(=O)C(C=NCCN2CCNCC2)=C(O)C1	-1	16	·	-3%	-1.0
O=C(NCc1ccco1)c1ccc2c(=O)n(Cc3ccco3)c(SCC(=O)N3CCCC3)nc2c1	5	6	-27	-3%	·
CCCn1nnnc1NCc1ccccc1OCc1cccs1	5	-6	-14	0%	3.5
Cc1ccc(S(=O)(=O)NCC(=O)N2CCOCC2)cc1	0	2	-46	2%	-0.6	Arbovirus anti repeat=0
CC1CCCN(C(=O)CSc2nc3ccccc3o2)C1 (stereo unspecified)	5	8	-27	-6%	-2.1
CCn1c(Oc2ccccc2C)nc2c1c(=O)n(C)c(=O)n2C	3	·	·	·	-2.2
Cc1cc(C)n2nc(C(=O)NNC(=O)c3ccccc3)nc2n1	-15	-1	·	-2%	-0.6
COC(=O)c1cc(Cl)c(NC(=O)c2cc3ccccc3o2)cc1OC	36	-2	5	3%	0.4
O=C(CCCc1ccccc1)Nc1ccnn1C1CCN(Cc2ccccc2)CC1	-6	·	·	·	-4.7
COc1cc(CNc2ccc3[nH]c(=O)[nH]c3c2)ccc1OCc1ccc(F)cc1	-2	·	·	·	-0.2
COc1cc(CNCC(C)C)c(Br)cc1OCC(=O)NCc1ccccc1	-19	7	-5	-5%	0.0
Cc1ccc(-c2cc[n+](Cc3ccccc3)cc2)cc1	-10	4	·	4%	-1.9
Cc1ccc(NC(=O)COC(=O)CCc2nc3ccccc3c(=O)[nH]2)cc1Cl	-3	5	·	-4%	-4.7
CN(CCOc1cccc2ccccc12)Cc1ccccc1	-20	·	·	·	3.0
Cc1cccc(NC(=O)C(=O)NCC2CCCN2S(=O)(=O)c2cccs2)c1C (stereo unspecified)	1	·	·	·	2.4

(listing goes on)
SMILES	Mtb betalactam	Arbovirus anti	YopH PTP inh	Mtb growth	RecA splice inh	others
O=C(Nc1ccc(O)c2c(=O)cc(-c3cccc(Cl)c3)oc12)c1ccccc1Cl	2	·	·	8%	0.2
COCCCNC(=O)Nc1ccc(F)cc1F	2	3	19	-8%	-1.5
CCn1cc(C(=O)NCCC2=CCCCC2)c(=O)c2cc(S(=O)(=O)N(C)C)ccc21	97	7	-16	-3%	1.2	Arbovirus anti repeat=6
Cc1ccc(S(=O)(=O)N(C)c2ccc(C(=O)N3CCCCC3)cc2)cc1	0	4	-7	-1%	-2.6
Cc1cccc(C)c1OCCNC(=O)c1ccc2ccccc2n1	4	-3	·	9%	9.4
CCOc1ccccc1N1CCN(C(=O)c2cccc(-c3ccc(O)cc3)c2)CC1	9	17	-6	·	16
CC(NC(=O)Nc1ccccc1)C(c1cccs1)N1CCOCC1 (stereo unspecified)	5	4	0	4%	-0.3
O=C(O)c1ccc(/C=N/Nc2ncc(C(F)(F)F)cc2Cl)cc1	36	·	·	-2%	-4.3
Cc1ccc[n+](CC(=O)c2ccccc2)c1	-1	·	·	·	-2.1
COc1cc(C(Nc2ccccn2)c2c(NC(=O)c3ccco3)sc(C)c2C)cc(OC)c1OC (stereo unspecified)	4	-10	-11	0%	-1.6
COc1ccc(CN(C)C(=O)C2CCN(C(=O)Nc3ccccc3)CC2)cc1	-9	·	·	·	0.1
Cc1ccc(C2(C(F)(F)F)NC(=O)N3N=C4CCCCCN4C3=C2C#N)cc1 (stereo unspecified)	-4	0	·	5%	0.1
CCc1cccc(CC)c1NC(=O)C[n+]1cccc(C(N)=O)c1	1	3	·	3%	1.7
Cc1ccc(C)c2c1cc(C)c1nnc(SCC(=O)N3CCCc4ccccc43)n12	0	-2	-30	15%	5.5
NC(=O)CSc1nccn1Cc1ccccc1	-8	-1	·	-4%	3.4
COc1ccc(COC(=O)C2=C(C)NC(=O)NC2c2ccc(OC)cc2)cc1 (stereo unspecified)	1	·	·	·	1.1
CC(C)Oc1ccc(Cn2c(=O)oc3ccccc32)cc1	?	·	·	·	1.1
O=C1CN(C(=O)CNCc2cccc(Cl)c2)c2ccccc2N1	-8	·	·	-4%	9.0
CC(=O)Nc1ccccc1-c1nnn(CC(=O)Nc2ccc3c(c2)OCCO3)n1	4	-7	·	-8%	2.4
O=C(NCc1cccs1)c1ccc(Cl)c(S(=O)(=O)N2CCCC2)c1	-3	11	·	1%	1.6
C=CCNC(=S)N1CCN(c2cc3c(cc2F)c(=O)c(C(=O)O)cn3CC)CC1	97	·	·	·	-0.1
Cn1c(=O)[nH]c(=O)c2c1nc(CN1CCOCC1)n2Cc1ccccc1	-3	14	-30	-3%	-0.3
CN(C)C(=O)C1C2NC(=S)N(c3ccc(Cl)cc3)C1(C)Oc1ccc(Cl)cc12 (stereo unspecified)	70	24	·	-4%	0.8
COc1ccc2[nH]c(CN3CCN(CCC(C)C)C(CCO)C3)c(C)c2c1 (stereo unspecified)	-6	-5	·	7%	-1.2
Cc1ccc(S(=O)(=O)N2CCOCC2)cc1C(=O)OC1CCCCC1=O (stereo unspecified)	4	5	·	6%	-1.2
CCOC(=O)C1CCN(C(=O)CN2C(=O)C(CC)Oc3ccccc32)CC1 (stereo unspecified)	2	-2	-31	-7%	-0.7
O=C1NC(=Nc2ccc(Cl)cc2)/C(=C/c2ccco2)S1	-2	-4	-3	0%	2.3
Cc1sc2ncn(CC(=O)NCCCN3CCC(C)CC3)c(=O)c2c1S(=O)(=O)N1CCC(C)CC1	6	·	·	·	-2.3
C=CCSc1nnc2nc3[nH]c4c(C)cccc4c3nn12	4	-4	-29	0%	6.2
Cn1c(CN2CCOCC2)nnc1SCC(=O)Nc1nccs1	-8	6	3	-5%	·
CC1CCCCC12NC(=O)N(CC(=O)NC(=O)Nc1ccc3c(c1)OCCO3)C2=O (stereo unspecified)	-5	4	-25	-2%	1.5
CC(C)(C)C(=O)NC1(C(F)(F)F)N=C2SCCN2C1=O (stereo unspecified)	-8	5	21	-4%	-0.9
COc1ccc(C)cc1NC(=O)C(OC(=O)c1cc(C)oc1C)c1ccccc1 (stereo unspecified)	3	11	-29	-1%	-0.6
COc1ccc(CNC2CC(=O)N(C)C2=O)cc1 (stereo unspecified)	1	4	-46	-3%	-1.6
O=C(Nc1nc2c(F)cc(F)cc2s1)C1CC(=O)N(Cc2ccco2)C1 (stereo unspecified)	-8	·	·	-1%	4.9
Cc1ccc(NC(=O)CN(c2ccccc2F)S(C)(=O)=O)cc1	-11	-1	-22	5%	1.6
CCCCn1c(SCC(=O)NCc2ccco2)nnc1-c1ccco1	-10	7	-37	-7%	1.5
CSCCC(NC=C1C(=O)OC(C)(C)OC1=O)C(=O)O (stereo unspecified)	14	5	-54	-7%	0.0

Of the compounds above, 11 contain a furan ring, fused or not:
SMILES	Mtb betalactam	Arbovirus anti	YopH PTP inh	Mtb growth	RecA splice inh	others
Cc1c(C(=O)NCc2cccs2)oc2ccc(S(=O)(=O)N3CCOCC3)cc12	-8	-13	-52	-1%	1.9	Arbovirus anti repeat=2
Cc1ccc(C(C(=O)NC2CCCC2)N(C(=O)Cc2cccs2)c2ccc(C)c(C)c2)o1 (stereo unspecified)	3	-15	1	5%	·
COC(=O)c1cc(C)sc1NC(=O)CN1CCN(C(=O)c2ccco2)CC1	2	·	·	·	1.8
COc1ccccc1N(CC(=O)NCCSCc1ccco1)S(=O)(=O)c1ccccc1	-5	·	·	·	5.8
O=C(NCc1ccco1)c1ccc2c(=O)n(Cc3ccco3)c(SCC(=O)N3CCCC3)nc2c1	5	6	-27	-3%	·
COC(=O)c1cc(Cl)c(NC(=O)c2cc3ccccc3o2)cc1OC	36	-2	5	3%	0.4
COc1cc(C(Nc2ccccn2)c2c(NC(=O)c3ccco3)sc(C)c2C)cc(OC)c1OC (stereo unspecified)	4	-10	-11	0%	-1.6
O=C1NC(=Nc2ccc(Cl)cc2)/C(=C/c2ccco2)S1	-2	-4	-3	0%	2.3
COc1ccc(C)cc1NC(=O)C(OC(=O)c1cc(C)oc1C)c1ccccc1 (stereo unspecified)	3	11	-29	-1%	-0.6
O=C(Nc1nc2c(F)cc(F)cc2s1)C1CC(=O)N(Cc2ccco2)C1 (stereo unspecified)	-8	·	·	-1%	4.9
CCCCn1c(SCC(=O)NCc2ccco2)nnc1-c1ccco1	-10	7	-37	-7%	1.5
